Screens: PubChem BioAssay, Broad Institute
AF4-AF9 inh = inhibitors of AF4 peptide binding to AF9, primary screen, biochemical, AlphaScreen, biotin-AF4 peptide, FLAG-AF9, single point. inhibition, % at 10 µM. hit rate 0.47% among 350,000;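 active = every replicate reaching a set inhibition limit, whatever the replicate mean, cut at about 25% in these data; inconclusive = mean inhibition reaches that limit but some replicates miss it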;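 also: 0% = plate neutral control median and 100% = total signal loss; the record names both 10 and 1 µM as test concentration; the first replicate is given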
Target sequence (P42568 whole entry, looked up): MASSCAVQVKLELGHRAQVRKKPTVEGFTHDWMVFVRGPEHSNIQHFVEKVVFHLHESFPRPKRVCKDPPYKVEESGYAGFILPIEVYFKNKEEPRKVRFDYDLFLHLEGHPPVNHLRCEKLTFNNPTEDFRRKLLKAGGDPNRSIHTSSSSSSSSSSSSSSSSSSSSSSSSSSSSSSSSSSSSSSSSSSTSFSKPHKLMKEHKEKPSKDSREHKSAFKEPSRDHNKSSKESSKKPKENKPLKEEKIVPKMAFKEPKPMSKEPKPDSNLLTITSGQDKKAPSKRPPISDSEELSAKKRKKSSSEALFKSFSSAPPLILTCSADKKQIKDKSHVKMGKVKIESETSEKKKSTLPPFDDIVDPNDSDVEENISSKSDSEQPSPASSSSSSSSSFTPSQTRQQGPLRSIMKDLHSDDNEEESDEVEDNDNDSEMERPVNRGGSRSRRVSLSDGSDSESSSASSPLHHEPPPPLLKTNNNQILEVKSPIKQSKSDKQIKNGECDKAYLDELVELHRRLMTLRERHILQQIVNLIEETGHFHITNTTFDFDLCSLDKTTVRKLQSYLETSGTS
An asterisk follows results filed as active; ? = inconclusive; & = joins results of further samples; ! = not confirmed by another sample. A portion of the library, so the mix of outcomes need not match the whole.

SMILES	AF4-AF9 inh
COc1cccc(NC(=O)N2CC(=O)N3[C@H](C2)[C@@H](c2ccc(C#CC4CCCC4)cc2)[C@@H]3CO)c1	6.5
COc1ccc(S(=O)(=O)Nc2ccc3c(c2)C(=O)N([C@@H](C)CO)C[C@@H](C)[C@@H](CN(C)C(=O)Nc2ccc(C(F)(F)F)cc2)OCCCC[C@@H](C)O3)cc1	-1.4
C[C@@H]1CN([C@@H](C)CO)C(=O)c2cc(-c3cncnc3)cnc2O[C@@H]1CN(C)C(=O)c1cccc(F)c1	-2.8
COc1ccc(-c2ccccc2[C@H]2[C@@H](C#N)N(C(=O)NC3CCCC3)[C@H]2CO)cc1	0.4
CCC(=O)NC[C@@H]1[C@@H](c2ccc(-c3ccc(F)cc3)cc2)[C@@H](CO)N1C(=O)CC	-2.5
CCCNC(=O)N1CC2(C1)[C@@H](c1ccccc1)[C@@H](CO)N2CC1CC1	-3.2
COC(=O)c1ccc(CN2CC(=O)N3[C@H](C2)[C@H](c2ccc(-c4ccccc4F)cc2)[C@@H]3CO)cc1	-0.7
COc1ccc(-c2cn(CC[C@H]3CC[C@@H](NC(=O)Nc4ccc(F)cc4)[C@H](CO)O3)nn2)cc1	-2.8
O=C(C[C@H]1CC[C@H](NC(=O)Cc2cccnc2)[C@H](CO)O1)Nc1ccccc1	-3.1
COc1ccccc1-c1ccc2n(c1=O)C[C@H]1[C@H](CO)[C@@H](C(=O)Nc3nccs3)N(C)[C@@H]21	-4.4

The last 2 entries of the section above lead into the next.
SMILES	AF4-AF9 inh
O=C(C[C@H]1CC[C@H](NC(=O)Cc2cccnc2)[C@H](CO)O1)Nc1ccccc1	-3.1
COc1ccccc1-c1ccc2n(c1=O)C[C@H]1[C@H](CO)[C@@H](C(=O)Nc3nccs3)N(C)[C@@H]21	-4.4
C[C@H]1CN([C@@H](C)CO)C(=O)c2cccc(NC(=O)Nc3cccc4ccccc34)c2O[C@H]1CN(C)S(C)(=O)=O	1.0
C[C@@H]1CCCCO[C@H](CN(C)Cc2ccc3c(c2)OCO3)[C@H](C)CN([C@@H](C)CO)C(=O)c2cc(NS(=O)(=O)c3ccc(F)cc3)ccc2O1	11
C[C@@H]1CCCCO[C@H](CN(C)C(=O)Cc2ccccc2)[C@H](C)CN([C@H](C)CO)C(=O)c2cc(N(C)C)ccc2O1	1.5
O=C(Cc1ccccn1)N[C@@H]1CC[C@H](CCn2cc(-c3ccc(F)cc3)nn2)O[C@H]1CO	0.0
CCS(=O)(=O)NC[C@H]1[C@@H](c2ccccc2)[C@@H](CO)N1CC1CCCC1	-5.1
COc1ccc(NC(=O)N(C)C[C@H]2Oc3c(NS(=O)(=O)c4ccc(Cl)cc4)cccc3C(=O)N([C@H](C)CO)C[C@@H]2C)cc1	-2.7
O=C(c1ccc2c(c1)OCO2)N1CC(=O)N2[C@H](CO)[C@H](c3ccc(C#CC4CCCC4)cc3)[C@@H]2C1	2.1
C[C@@H]1CN([C@@H](C)CO)C(=O)Cc2cc(NC(=O)c3ccncc3)ccc2O[C@@H]1CN(C)Cc1ccc(-c2ccccc2)cc1	12
CCCC(=O)Nc1ccc2c(c1)OC[C@H](C)N(CC1CCOCC1)C[C@H](C)[C@H](OC)CN(C)C2=O	-2.6
COc1ccc(C#Cc2ccc([C@H]3[C@H](CO)N4C(=O)CN(C(C)=O)C[C@@H]34)cc2)cc1	-0.2
O=C(Nc1ccccc1F)N1CC(=O)N2[C@H](C1)[C@H](c1ccc(C#CC3CC3)cc1)[C@@H]2CO	-0.9
Cc1noc(C)c1NC(=O)N(C)C[C@@H]1OCCCC[C@@H](C)Oc2ccc(NS(=O)(=O)c3cccs3)cc2C(=O)N([C@H](C)CO)C[C@@H]1C	0.1
C/C=C/c1ccc([C@H]2[C@@H](CO)N(C(=O)C3CCC3)C23CN(S(=O)(=O)CC)C3)cc1	-2.6
CCNC[C@H]1[C@@H](c2ccc(C3=CCCC3)cc2)[C@@H](CO)N1C(=O)C1CCCC1	3.5
CN1[C@H](C(=O)NC2CCCC2)[C@@H](CO)[C@@H]2Cn3c(ccc(-c4cccc(F)c4)c3=O)[C@@H]21	-1.4
CCCNC(=O)C[C@@H]1CC[C@@H]2[C@@H](COc3ccc(NC(=O)NCCC)cc3C(=O)N2C)O1	1.1
CCCC#Cc1ccc([C@H]2[C@@H](CO)N3C(=O)CN(C(=O)NC4CCCC4)C[C@H]23)cc1	1.4
COc1cc(CN2C[C@@H]3N[C@H](C2)C3c2ccc(-c3ccccc3C)cc2)cc(OC)c1 (some centres not stated)	27*!
CCS(=O)(=O)N1CC2(CN(Cc3cccnc3)[C@@H](CO)c3c2c2ccc(OC)cc2n3C)C1	-1.9
O=C(Nc1ccc(F)cc1)N[C@H]1CC[C@H](CCNC(=O)c2ccccc2F)O[C@H]1CO	-9.8
O=C(NC1CCCC1)N1CC2(C1)[C@H](c1ccccc1)[C@H](CO)N2CC1CC1	-2.2
O=C1CN(S(=O)(=O)Cc2ccccc2)C[C@@H]2[C@H](c3ccc(C#Cc4cccnc4)cc3)[C@H](CO)N12	2.1
O=C(C1CCCC1)N1CC[C@@H]2[C@H](CO)Nc3ccc(C#Cc4ccc(F)cc4)cc3[C@@H]21	7.5
Cc1ccccc1-c1ccc(C2[C@H]3CNC[C@@H]2N3S(=O)(=O)c2ccccc2C)cc1 (some centres not stated)	-2.4&0.8
Cc1cccc(-c2ccc([C@H]3[C@@H](CO)N4C(=O)CN(C(=O)c5cccnc5)C[C@H]34)cc2)c1	0.3
COc1ccc(CN(C)C[C@H]2OCCCC[C@@H](C)Oc3ccc(NS(=O)(=O)c4ccc(C)cc4)cc3C(=O)N([C@H](C)CO)C[C@H]2C)cc1	15
C/C=C/c1ccc([C@@H]2[C@@H](CO)N3C(=O)CN(S(=O)(=O)c4ccccc4)C[C@H]23)cc1	1.5
O=C(c1cccc(F)c1)N1CC(=O)N2[C@@H](CO)[C@@H](c3ccc(-c4cccnc4)cc3)[C@@H]2C1	-1.3
C/C=C/c1ccc([C@H]2[C@@H](CO)N(C(=O)CC)[C@@H]2CN(C)C(=O)NC(C)C)cc1	-6.6
O=C(C1CCOCC1)N1CC(=O)N2[C@@H](CO)[C@H](c3ccc(C#CCc4ccccc4)cc3)[C@@H]2C1	1.1

Rewritten with bars between the fields: 3 of the compounds above.
mol | AF4-AF9 inh
COc1ccc(CN(C)C[C@H]2OCCCC[C@@H](C)Oc3ccc(NS(=O)(=O)c4ccc(C)cc4)cc3C(=O)N([C@H](C)CO)C[C@H]2C)cc1 | 15
C/C=C/c1ccc([C@@H]2[C@@H](CO)N3C(=O)CN(S(=O)(=O)c4ccccc4)C[C@H]23)cc1 | 1.5
O=C(c1cccc(F)c1)N1CC(=O)N2[C@@H](CO)[C@@H](c3ccc(-c4cccnc4)cc3)[C@@H]2C1 | -1.3

Next part
SMILES	AF4-AF9 inh
CCCNC(=O)[C@H]1[C@H](CO)[C@H]2Cn3c(ccc(-c4ccccc4F)c3=O)[C@H]2N1C(=O)C1CCC1	-3.1
COc1ccc(NC(=O)N2CC(=O)N3[C@H](C2)[C@H](c2ccc(-c4ccccc4)cc2)[C@@H]3CO)cc1	3.9
COc1ccc(C#Cc2ccc([C@@H]3[C@@H](CO)N4C(=O)CN(C(C)=O)C[C@@H]34)cc2)cc1	-1.7
COc1cccc(C(=O)Nc2ccc3c(c2)OC[C@@H](C)N(C(C)=O)C[C@H](C)[C@H](OC)CN(C)C3=O)c1	-0.8
O=C(NC[C@H]1CC[C@H]2[C@H](CN2C(=O)NC2CCCC2)O1)c1ccc2c(c1)OCO2	-4.5
C[C@@H]1CCCCO[C@H](CN(C)CC2CCCCC2)[C@H](C)CN([C@H](C)CO)C(=O)c2cc(NC(=O)Cc3ccccc3)ccc2O1	3.9
C[C@@H]1CCCCO[C@H](CN(C)C)[C@H](C)CN([C@@H](C)CO)C(=O)c2cc(N(C)C)ccc2O1	-7.3
COCC(=O)N1CC(=O)N2[C@H](CO)[C@H](c3ccc(C#CC4CCCC4)cc3)[C@@H]2C1	-1.5
CCNC(=O)[C@@H]1[C@@H](CO)[C@@H]2Cn3c(ccc(C4=CCCCC4)c3=O)[C@H]1N2CCC(F)(F)F	-2.7
O=C(c1ccccc1F)N1CC2(C1)[C@@H](c1ccccc1)[C@@H](CO)N2CC1CCCC1	2.2
O=C(C[C@H]1C=C[C@@H](NC(=O)c2ccc3c(c2)OCO3)[C@@H](CO)O1)NC1Cc2ccccc2C1	-2.2
O=C(C[C@@H]1CC[C@@H](NC(=O)C2CCOCC2)[C@H](CO)O1)Nc1ccccc1	-2.4
O=C(NC[C@@H]1[C@@H](c2ccccc2)[C@@H](CO)N1Cc1cccnc1)C1CCCCC1	-13
CO[C@@H]1CN(C)C(=O)c2ccc(NS(=O)(=O)c3c(C)noc3C)cc2OC[C@H](C)NC[C@@H]1C	-3.9
Fc1cccc(CN2C[C@@H]3N[C@H](C2)C3c2ccc(-c3ccccc3)cc2)c1 (some centres not stated)	11&8.5
COCC#Cc1ccc([C@H]2[C@H](CO)N3C(=O)CN(C(=O)C4CCOCC4)C[C@@H]23)cc1	-1.6
CN(C)CC#Cc1ccc([C@H]2[C@H]3CN(C(=O)Cc4ccccc4)CC(=O)N3[C@H]2CO)cc1	0.3
O=C(c1cccnc1)N1CC(=O)N2[C@@H](CO)[C@@H](c3ccc(-c4cccnc4)cc3)[C@@H]2C1	?
O=C(NC1CCCC1)N1CC(=O)N2[C@H](CO)[C@@H](c3ccc(-c4cccc(F)c4)cc3)[C@@H]2C1	-0.9
C/C=C/c1ccc([C@H]2[C@@H](CO)N(C(C)=O)C23CN(C(=O)NC2CCCC2)C3)cc1	1.3

The final 2 entries of the part above come first, to join the parts:
SMILES	AF4-AF9 inh
O=C(NC1CCCC1)N1CC(=O)N2[C@H](CO)[C@@H](c3ccc(-c4cccc(F)c4)cc3)[C@@H]2C1	-0.9
C/C=C/c1ccc([C@H]2[C@@H](CO)N(C(C)=O)C23CN(C(=O)NC2CCCC2)C3)cc1	1.3
C[C@H]1CN([C@@H](C)CO)C(=O)c2cc(NC(=O)Cc3ccccc3)ccc2O[C@H]1CN(C)C(=O)Nc1ccc2c(c1)OCO2	-3.4
COc1ccc(-c2ccc3c(c2)[C@@H]2[C@@H](CCN2S(=O)(=O)c2ccc(F)cc2)[C@@H](CO)N3C)cc1	7.1
CN(C)C(=O)c1cccc(-c2ccc([C@H]3[C@H](CO)N4C(=O)CN(C(=O)C5CCCC5)C[C@@H]34)cc2)c1	-1.5
C[C@H]1CN([C@@H](C)CO)C(=O)c2c(c3ccccc3n2C)-c2ccccc2CO[C@@H]1CN(C)Cc1cccc(O)c1	9.8
O=C(c1ccc(F)cc1)N1CC(=O)N2[C@@H](CO)[C@@H](c3ccc(C#CC4CCCC4)cc3)[C@@H]2C1	3.5
CCN(C[C@@H]1[C@@H](c2ccccc2)[C@@H](CO)N1CC1CC1)C(=O)c1ccccc1F	-1.2
C[C@H](CO)N1C[C@H](C)[C@H](CN(C)C(=O)Nc2cccc3ccccc23)Oc2c(NS(C)(=O)=O)cccc2C1=O	-1.9
C[C@H]1CCCCO[C@@H](CN(C)C(=O)CCCN(C)C)[C@@H](C)CN([C@@H](C)CO)C(=O)c2cc(NS(=O)(=O)c3ccc(F)cc3)ccc2O1	3.8
CC(=O)N1CC(=O)N2[C@H](CO)[C@@H](c3ccc(-c4cccc(C(=O)N(C)C)c4)cc3)[C@H]2C1	-0.5
COc1ccc2c3c(n(C)c2c1)[C@H](CO)N(C(=O)NC(C)C)CC31CCN(C(C)=O)CC1	-3.5
CO[C@@H]1CN(C)C(=O)c2cc(NC(=O)CC(F)(F)F)ccc2OC[C@H](C)N(CC2CC2)C[C@H]1C	-4.0
Cc1cc(C(=O)Nc2ccc3c(c2)C(=O)N(C)[C@H]2CC[C@@H](CC(=O)NCC(F)(F)F)O[C@H]2CO3)no1	0.7
C[C@H]1CN([C@@H](C)CO)C(=O)Cc2cc(NS(=O)(=O)c3ccc(F)cc3)ccc2O[C@H]1CN(C)C	-5.1
O=C1CN(S(=O)(=O)c2ccccc2)C[C@@H]2[C@H](c3ccc(C4=CCCC4)cc3)[C@@H](CO)N12	1.1
COc1ccc2c3c(n(C)c2c1)[C@@H](CO)N(C)CC31CN(S(=O)(=O)c2cccs2)C1	-6.9
CN1C(=O)c2cc(NC(=O)Nc3cccc(Cl)c3)ccc2OC[C@H]2O[C@H](CC(=O)O)CC[C@@H]21	0.5
CCCNC(=O)Nc1ccc2c(c1)OC[C@@H](C)N(CC1CCCC1)C[C@@H](C)[C@@H](OC)CN(C)C2=O	-0.7
COc1ccccc1NC(=O)N1CC(=O)N2[C@H](C1)[C@@H](c1ccc(C#CC3CC3)cc1)[C@@H]2CO	1.9
COc1ccccc1NC(=O)N1CC(=O)N2[C@@H](CO)[C@@H](c3ccc(C#Cc4ccccc4)cc3)[C@@H]2C1	-3.2
Cc1ccccc1-c1ccc(C2[C@H]3CNC[C@@H]2N3Cc2cncnc2)cc1 (some centres not stated)	6.1
COc1ccc2c3c(n(C)c2c1)[C@H](CO)N(S(C)(=O)=O)CC31CCN(C(=O)C2CCCC2)CC1	-6.3
CN(C)CC#Cc1ccc([C@H]2[C@H](CO)N3C(=O)CN(C(=O)Cc4cccnc4)C[C@@H]23)cc1	-2.7
COCC#Cc1ccc(CC[C@H]2O[C@H]3CC[C@@H](CO)O[C@H]3C[C@@H]2n2cc(C(C)(C)O)nn2)cc1	-5.9
COCC(=O)N1CC2(CCN(C(=O)CN3CCOCC3)CC2)c2c([nH]c3cc(OC)ccc23)[C@@H]1CO	-3.9
O=C(NC1CCC1)[C@@H]1[C@@H](CO)[C@@H]2Cn3c(ccc(-c4ccccc4F)c3=O)[C@@H]2N1Cc1ccccn1	-1.7
